HIV Env fusion – inhibitors of HIV-1 Env-driven cell-cell fusion, primary screen, HeLa-JRFL effector, CEM21 target cells, luciferase; AID 651610, 2012; inhibition, % at 12.3 µM; 360,000 tested, 1.1% active;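 active = mean replicate inhibition score of at least 50 and every replicate individually at or above 50; inconclusive = only one of the two criteria met; inactive = mean below 50 and not all replicates reaching 50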;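 also: 0% = plate neutral controls and 100% = maraviroc near 300 nM; one replicate is shown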
CSC inhib – cancer stem cell viability inhibitors, primary screen, luminescence; cancer stem cell-like cells viability; inhibition, % at 7.5 µM; 300,000 tested, 1.1% active;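 active = mean at 75% or more and at least half the replicates too; inconclusive = mean and replicates disagree; tested in HMLE shEcad cells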;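 also: 0% = median of negative and 100% = median of positive control wells; the first replicate is given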
MT1-MMP act inh – blockers of MT1-MMP proenzyme processing, primary screen, HT1080 RFP-PRO-GFP cells, GFP/RFP fluorescence; 360,000 tested, 0.061% active; AID 651647, 2012; GFP/RFP ratio change, % at 20 µM; Matrix metalloproteinase-14 (Homo sapiens), P50281; GFP/RFP ratio fluorescence, overnight; percent of plate control window, DMSO zero;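 active = GFP/RFP ratio change of at least 30% with cell ATP level not reduced by more than half and red fluorescence within 50% of control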; also: strong numbers were not always called active
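Assay system: HT1080 RFP-PRO-GFP cells | Dosing: 20 µM single dose, 1% DMSO | Incubation: Cells overnight before dosing, compound overnight, 37 °C, 5% CO2 | Evaluation: GFP/RFP fluorescence ratio | Control set: DMSO-only wells and HT1080 RFP-L50D-GFP cell wells as references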
Rce1 inh – yeast Rce1p protease inhibitors, primary screen, biochemical, fluorescence, cell-free homogeneous | AID 2563, 2010 | yeast membranes, quenched prenylated peptide cleavage fluorescence | 290,000 tested, 0.27% active | calls only;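 active = fall in fluorescence gain of 50% or more versus controls, with final raw signal at or below 3038400; inconclusive = same 50% fall but final raw signal above 3038400; inactive = fall in fluorescence gain under 50%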;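 also: plate controls were neutral control wells for no effect and wells lacking membranes for full effect; tested at 10 µM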
Target sequence (Q03530 whole entry, looked up): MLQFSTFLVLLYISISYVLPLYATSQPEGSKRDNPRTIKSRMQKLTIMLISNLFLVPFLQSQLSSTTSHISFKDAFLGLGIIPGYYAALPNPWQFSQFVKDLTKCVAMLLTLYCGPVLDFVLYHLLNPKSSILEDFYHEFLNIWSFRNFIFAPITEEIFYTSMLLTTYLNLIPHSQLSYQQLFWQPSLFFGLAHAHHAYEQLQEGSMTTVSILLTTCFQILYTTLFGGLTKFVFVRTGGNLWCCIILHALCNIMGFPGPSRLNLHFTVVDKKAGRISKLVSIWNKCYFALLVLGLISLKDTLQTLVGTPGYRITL
eIF4H inh – human eIF4H binding inhibitors, primary screen, translation initiation inhibitor project, biochemical, uHTS, fluorescence polarization; Eukaryotic translation initiation factor 4H (Homo sapiens), Q15056; eIF4H fluorescence polarization binding assay; inhibition, % at 35 µM; 290,000 tested, 0.94% active;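 active = 50% or more with normal probe brightness, or confirmed in later tests; inconclusive = above 50% with abnormal brightness, or retests that disagree; inactive = below 50% or failed in later tests; about a fifth of its hits are not listed in these tables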;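 also: calls also rest on retests at 20 µM and on dose response follow-up; 0% = protein and probe with vehicle and 100% = probe without protein; strong numbers were not always called active; many hits fall short of the cut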
PABP polyA inh – PABP poly(A) RNA binding inhibitors, primary screen, biochemical, fluorescence polarization, uHTS; Polyadenylate-binding protein 1 (Homo sapiens), P11940; inhibition, % at 35 µM; 290,000 tested, 1% active;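 active = 50% or more with normal probe brightness, or confirmed in later tests; inconclusive = above 50% with abnormal brightness, or retests that disagree; inactive = below 50% or failed in later tests; about a fifth of its hits are not listed in these tables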;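 also: calls also rest on retests at 20 µM and on dose response follow-up; controls were probe without protein and protein plus probe with vehicle; some compounds called inactive have numbers as strong as hits; many hits fall short of the cut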
UUG fidelity – modulators of yeast start codon fidelity, primary screen, whole organism, S. cerevisiae, single point, plate reader; activity score, % at 18.7 µM; AID 602363, 2012; 350,000 tested, 0.13% active; S. cerevisiae UUG-firefly luciferase reporter, luminescence/redox ratio;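 active = replicate mean at a twofold rise or more, about +100% in these data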;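 also: firefly luciferase made from a UUG start codon reports start codon fidelity; reporter light over untreated wells divided by growth signal over untreated wells; some hits fall short of that in this replicate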
MT1-MMP act inh RFP – further read-out of MT1-MMP act inh, marked with its call; RFP signal change, %; measured here: RFP expression control read;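 0 = vehicle wells; hits needed this value within 50% of zero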
The depositor's hits bear a star; i = inactive; ? = inconclusive; nt = not tested or not shown. Compounds were not picked by outcome; overall some 2.9% were active at least once.

SMILES	HIV Env fusion	CSC inhib	MT1-MMP act inh	MT1-MMP act inh RFP	Rce1 inh	eIF4H inh	PABP polyA inh	UUG fidelity
C[C@H]1CCC(=O)N([C@H](CSc2ccccc2)Cc2ccccc2)CC1	29	-16	-14	-12	i	-3	3	-14
Cc1onc(-c2ccccc2Cl)c1C(=O)O/N=C(\N)c1ccccc1	1	41	-8	-16	i	-10	2	-6
Cc1ccc2[nH]c3c(c2c1)CN(C(=O)CN1CCN(c2ccccc2F)CC1)CC3	nt	nt	nt	nt	i	?	?	nt
Cc1c(NC(=O)CSc2ncnc3c2cnn3-c2ccccc2)c(=O)n(-c2ccccc2)n1C	1	-10	-3	-9	nt	nt	nt	-12
CN(CC(=O)Nc1cc(Cl)ccc1Cl)C1CCS(=O)(=O)C1 (stereo not given)	4	-8	11	5	nt	nt	nt	-1
Cc1ccc(C2N(c3cccc(Cl)c3)C(=O)N3CCCN23)cc1 (stereo not given)	7	-10	-2	-3	i	-5	1	nt
CCOC(=O)c1ccccc1NC(=O)c1ccc2c(SCC(=O)O)c3c(nc2c1)CCCC3	2	25	2	0	i	22	26	-22
O=C(NNc1nc(-c2ccc(Br)cc2)cs1)c1ccco1	-15	45	13	3	i	6	-4	-31
COc1ccccc1N(CC(=O)NC1CCCC1)C(=O)C1(C)CC(=O)N=C2C=CC(C)=CN21 (stereo not given)	-3	16	-1	0	i	1	4	-18
O=C(N/N=C/c1cccs1)c1cccnc1	2	3	3	2	i	-4	3	-10
COc1ccc(CC(N)c2csc(NC(=O)c3cc(C(C)(C)C)nn3Cc3ccccc3)n2)cc1 (stereo not given)	-45	nt	-12	-9	nt	nt	nt	-13
COc1ccc(N2CCN(c3ccc(N4C(=O)COCC4=O)cc3[N+](=O)[O-])CC2)cc1	13	28	11	-7	i	-1	-16	-3
O=C(O)CCCCCNC(=O)Cn1nnc2ccccc2c1=O	-5	-10	2	-1	i	2	-14	-10
O=C(/C=C/c1ccccc1Cl)Nc1cccc(O)c1	-256	31	4	-7	i	-8	3	nt
C=CCc1c(C)nc(-c2ccccc2)nc1N/N=C/c1ccncc1	-7	-10	-3	-4	i	2	-14	nt
COc1cc(S(=O)(=O)NCc2ccc3c(c2)OCO3)c(OC)cc1C	-2	-3	-3	-2	i	-2	4	-4
CCCOc1ccc(CSc2nc3ccccc3[nH]2)cc1	-3	24	4	-21	i	-5	-2	nt
O=S(=O)(CCN1CCSCC1)c1ccccc1	-23	-5	-1	-2	i	-4	-4	nt
CCOc1cc(/C=N/NC(=O)CNc2ccc(C)cc2)ccc1OC(=O)c1ccccc1	nt	12	-4	7	i	1	-4	-6
COc1ccc(Nc2nc(Cl)nc(Nc3ccc(OC)cc3)n2)cc1	-1	-18	-2	-1	i	16	2	nt
CC(=O)Nc1ccc(C(=O)NCCc2ccccc2)cc1	-19	-12	0	2	i	-15	4	nt
Cc1ccc(S(=O)(=O)NC(=O)C2(C)CCN2C(=O)C2CC2)cc1 (stereo not given)	7	nt	-6	3	nt	nt	nt	-5
Cc1cc(C2(O)C(=O)Nc3ccccc32)ccc1F (stereo not given)	7	-14	-1	4	i	-1	0	-32
CC(C)CCNC(=O)C(c1ccncc1)N(Cc1cccs1)C(=O)Cn1nnc(-c2ccc(F)cc2)n1 (stereo not given)	33	-12	-45	-26	i	22	8	-21
Cc1ccc(OCCCCn2cnc3ccccc32)cc1	-18	2	2	-9	i	0	-3	nt
COc1ccc(OCCCC(=O)Nc2nncs2)cc1	-16	0	3	6	i	2	0	-22
O=C(c1cc(S(=O)(=O)N2CCOCC2)c(Cl)cc1Cl)N1CCCCC1CO (stereo not given)	-3	-11	-3	2	i	0	0	19
Cc1ccc(-c2nc(NCc3cccnc3)c3ccccc3n2)cc1	nt	nt	-6	0	i	-5	3	-17
CC(C)(C)[C@@H]1COC(=O)[C@H](Cc2ccc(F)cc2)C/C=C\C[C@@H](CC(=O)NCCO)C(=O)N1	-40	nt	6	9	nt	nt	nt	8
CS(=O)(=O)N(CC(=O)Nc1ccccc1C(=O)N1CCOCC1)c1ccc2c(c1)OCO2	nt	-9	-1	0	i	-6	11	nt
CN(C(=O)C(C)(C)C)C1c2c(ccc3ccccc23)OCC1CO (stereo not given)	25	-9	-1	1	i	-13	2	10
O=C(COc1ccccc1)NNC(=O)c1ccc(Cl)cc1	-26	nt	-2	1	nt	nt	nt	-11
COc1ccc(N2CCN(CC(=O)NCc3ccc(Cl)cc3)CC2)cc1	-1	-13	3	3	i	7	0	-6
N/C(Cc1ccc(Cl)cc1)=N\OC(=O)C1CCCCC1	nt	0	-1	5	i	-8	1	nt
Cc1nn(C)c(C)c1NC(=O)c1cnn2c(C(F)F)cc(-c3ccccc3)nc12	nt	0	nt	nt	nt	-1	-2	nt
O=C(O)COc1ccc(/C=C2\SC(=Nc3ccccc3)N(c3ccccc3)C2=O)cc1	-26	-3	-2	1	i	-5	5	nt
Cc1cc2cc(CNC(=O)NC3CCCCC3)ccc2n1C	-7	nt	25	22	i	13	20	-32
O=[N+]([O-])c1ccc(OCC(O)CN2CCN(c3ccccc3F)CC2)cc1 (stereo not given)	17	7	3	6	i	2	7	nt
CCOC(=O)CSc1nc2cc(C)cc(C)c2cc1C#N	nt	2	-17	2	i	-5	5	-13
CC1CCCC(NC(=O)COC(=O)c2ccccc2[N+](=O)[O-])C1C (stereo not given)	7	-9	4	16	i	4	-2	nt

Record cards, from the list above. Order of values: HIV Env fusion | CSC inhib | MT1-MMP act inh | MT1-MMP act inh RFP | Rce1 inh | eIF4H inh | PABP polyA inh | UUG fidelity
Cc1ccc(C2N(c3cccc(Cl)c3)C(=O)N3CCCN23)cc1 (stereo not given) as listed: 7 | -10 | -2 | -3 | i | -5 | 1 | nt
COc1ccc(OCCCC(=O)Nc2nncs2)cc1 as listed: -16 | 0 | 3 | 6 | i | 2 | 0 | -22
C=CCc1c(C)nc(-c2ccccc2)nc1N/N=C/c1ccncc1 as listed: -7 | -10 | -3 | -4 | i | 2 | -14 | nt

Next section:
SMILES	HIV Env fusion	CSC inhib	MT1-MMP act inh	MT1-MMP act inh RFP	Rce1 inh	eIF4H inh	PABP polyA inh	UUG fidelity
CCOC(=O)N1CCN(C(=O)CN(C2CCCCC2)S(=O)(=O)c2ccc(C)cc2)CC1	nt	-19	2	1	i	-1	-4	-6
Cc1cc(CNC(=O)CCc2nnc(CCCc3ccccc3)o2)nn1C	-6	nt	-2	1	i	5	0	nt
COc1cccc(C(=O)NCCSCc2ccccc2Cl)c1	-92	-7	1	6	i	-6	5	-4
O=C(Nc1cc(S(=O)(=O)N2CCCCC2)ccc1N1CCCCC1)c1ccncc1	-25	-11	0	-4	i	-1	-12	nt
Cc1nc(NC(=O)c2ccccc2)sc1C1(C)CC(c2ccccc2F)=NO1 (stereo not given)	-11	19	1	-1	i	-12	2	-20
COc1cc2c(cc1OC)C(c1ccccc1)N(S(C)(=O)=O)CC2 (stereo not given)	-19	-5	4	5	i	4	-10	8
CCCOc1ccc(/C=N/O)cc1	i	6	-1	3	i	-13	-4	0
NS(=O)(=O)c1ccc(CCNC(=O)CCC2COc3ccccc3O2)cc1 (stereo not given)	nt	5	3	5	i	3	-1	-15
C=CCN(CC=C)Cc1c(O)ccc2c(=O)c(-c3ccccc3)coc12	6	-9	-8	-11	i	1	-7	-8
Cc1cc(SCC(=O)c2ccc3c(c2)OCO3)nc2ccccc12	-19	18	1	3	i	0	4	3
O=C(CN1C(=O)NC(c2ccccc2)(c2ccccc2)C1=O)NCc1ccco1	?	-18	2	1	nt	nt	nt	nt
CCC(C)c1ccccc1OCC(=O)NN1C(=O)c2ccccc2C1=O (stereo not given)	-3	-20	0	2	i	7	5	6
CN(CC(=O)Nc1ccccc1Br)C(=O)c1cc(S(=O)(=O)N(C)C)ccc1N1CCCC1	11	-8	0	0	i	nt	nt	10
O=C(COc1ccccc1F)NCC(c1ccc(F)cc1)N1CCOCC1 (stereo not given)	nt	6	0	-2	nt	nt	nt	-8
O=C(O)c1ccc(NC(CSCc2ccccc2F)C(=O)O)c([N+](=O)[O-])c1 (stereo not given)	nt	-3	3	0	i	-3	-4	nt
CC(C)C[C@@H](CN)NC(=O)c1nc[nH]c1C(=O)N[C@@H](CC(C)C)C(=O)CNC[C@H](C)NC(=O)c1nc[nH]c1C(=O)N[C@@H](C)C(=O)O	-9	nt	1	1	nt	nt	nt	-9
COc1ccc(/C=C2\SC(=O)N(CCCC(=O)Nc3ccc(C(=O)O)cc3)C2=O)cc1	89*	nt	2	3	nt	nt	nt	-70
Cc1cc(C)cc(-n2ccn(CC(=O)NCCc3ccccc3)c(=O)c2=O)c1	15	17	3	6	i	nt	nt	-18
Cn1nccc1-c1cc(Cl)cc(Cl)c1O	4	-2	1	0	i	4	-8	12
Cc1ccnc(SCc2cc(=O)c(OC(=O)c3ccc(Cl)c([N+](=O)[O-])c3)co2)n1	-27	4	4	8	i	8	12	11
CCCCNC(=O)C1CCCN(S(=O)(=O)CC)C1 (stereo not given)	11	-9	-1	2	i	4	-4	nt
O=C(COc1ccccc1[N+](=O)[O-])N/N=C/c1ccc(O)c([N+](=O)[O-])c1	-10	-5	3	-1	i	-2	-4	nt
O=C(O)c1sc2ncccc2c1OCc1ccccc1	-16	-12	-1	4	i	-1	4	nt
C[n+]1c2n(c3ccccc31)N=C(c1ccc(Cl)cc1)CS2	33	12	10	-2	i	2	-4	-19
CCN(CC(=O)Nc1cc(Cl)ccc1C)C(=O)Cn1c(=O)cnc2ccccc21	7	-16	4	6	i	nt	nt	nt
CCN(CC(=O)NC(C)C)C(=O)c1cc(S(=O)(=O)N2CCCCC2)ccc1N1CCCCC1	9	nt	1	-4	nt	nt	nt	-19
COC(=O)COc1ccc(S(=O)(=O)NCc2ccco2)cc1	nt	-2	-1	0	i	-2	2	-8

In a second layout: results already given
mol | HIV Env fusion | CSC inhib | MT1-MMP act inh | MT1-MMP act inh RFP | Rce1 inh | eIF4H inh | PABP polyA inh | UUG fidelity
O=C(O)c1sc2ncccc2c1OCc1ccccc1 | -16 | -12 | -1 | 4 | i | -1 | 4 | nt
O=C(COc1ccccc1[N+](=O)[O-])N/N=C/c1ccc(O)c([N+](=O)[O-])c1 | -10 | -5 | 3 | -1 | i | -2 | -4 | nt
CCN(CC(=O)NC(C)C)C(=O)c1cc(S(=O)(=O)N2CCCCC2)ccc1N1CCCCC1 | 9 | nt | 1 | -4 | nt | nt | nt | -19
C[n+]1c2n(c3ccccc31)N=C(c1ccc(Cl)cc1)CS2 | 33 | 12 | 10 | -2 | i | 2 | -4 | -19
CCN(CC(=O)Nc1cc(Cl)ccc1C)C(=O)Cn1c(=O)cnc2ccccc21 | 7 | -16 | 4 | 6 | i | nt | nt | nt

Screening data: PubChem, several laboratories
